MT1-MMP act inh = inhibitors of human MT1-MMP activation | HT1080 RFP-PRO-GFP cells, GFP/RFP ratio fluorescence, overnight; percent of plate control window, DMSO zero | GFP/RFP ratio change, % at 20 µM | 360,000 tested, 0.061% active | AID 651647 | P50281;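 active = GFP/RFP ratio change of at least 30% with cell ATP level not reduced by more than half and red fluorescence within 50% of control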; note: strong numbers were not always called active
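Assay system: HT1080 cells carrying an RFP-PRO-GFP reporter | Dosing: Single dose of 20 µM compound, 1% DMSO final | Incubation: Cells overnight before dosing, compound overnight, 37 °C, 5% CO2 | Evaluation: GFP/RFP fluorescence ratio | Control set: DMSO and RFP-L50D-GFP cell wells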
Yeast UUG start = modulators of start codon recognition fidelity in yeast; AID 602363; S. cerevisiae UUG-firefly luciferase reporter, luminescence/redox ratio; activity score, % at 18.7 µM; 350,000 tested, 0.13% active;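 active = replicate mean at a twofold rise or more, about +100% in these data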;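 note: firefly luciferase made from a UUG start codon reports start codon fidelity; reporter light over untreated wells divided by growth signal over untreated wells; some hits fall short of that in this replicate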
CSC inhib = cancer stem cell inhibition; cancer stem cell-like cells viability, luminescence; inhibition, % at 7.5 µM; 300,000 tested, 1.1% active; AID 2717;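 active = mean at 75% or more and at least half the replicates too; tested in HMLE shEcad cells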;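 note: 0% = median of negative and 100% = median of positive control wells; the first replicate is given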
PABP FP inh = blocks human PABP binding to poly(A) RNA; P11940; inhibition, % at 35 µM; fluorescence polarization; AID 2014; 290,000 tested, 1% active;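 active = 50% or more with normal probe brightness, or confirmed in later tests; about a fifth of its hits are not listed in these tables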;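 note: calls also rest on retests at 20 µM and on dose response follow-up; controls were probe without protein and protein plus probe with vehicle; some compounds called inactive have numbers as strong as hits; many hits fall short of the cut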
Target sequence (P11940 whole entry, looked up): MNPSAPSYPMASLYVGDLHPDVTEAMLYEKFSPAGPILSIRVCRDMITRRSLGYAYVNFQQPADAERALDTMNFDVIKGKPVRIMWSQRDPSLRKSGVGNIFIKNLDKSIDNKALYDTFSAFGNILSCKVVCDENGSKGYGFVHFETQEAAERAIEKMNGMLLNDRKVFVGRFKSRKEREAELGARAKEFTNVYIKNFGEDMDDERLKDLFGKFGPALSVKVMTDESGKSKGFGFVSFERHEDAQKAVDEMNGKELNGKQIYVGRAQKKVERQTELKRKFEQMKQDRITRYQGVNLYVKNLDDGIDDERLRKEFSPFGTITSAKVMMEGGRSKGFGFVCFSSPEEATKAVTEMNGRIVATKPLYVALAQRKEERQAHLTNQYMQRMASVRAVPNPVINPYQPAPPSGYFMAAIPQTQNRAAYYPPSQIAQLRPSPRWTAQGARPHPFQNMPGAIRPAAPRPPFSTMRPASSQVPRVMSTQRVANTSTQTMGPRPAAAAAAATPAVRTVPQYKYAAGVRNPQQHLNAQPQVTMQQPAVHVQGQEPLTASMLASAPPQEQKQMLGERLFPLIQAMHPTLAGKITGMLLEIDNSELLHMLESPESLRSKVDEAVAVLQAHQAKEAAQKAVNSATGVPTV
HIV Env fusion = HIV envelope-mediated fusion inhibition. AID 651610. 360,000 tested, 1.1% active. inhibition, % at 12.3 µM. HeLa-JRFL Env/CEM21 cell fusion, luciferase;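 active = mean replicate inhibition score of at least 50 and every replicate individually at or above 50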;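 note: 0% = plate neutral controls and 100% = maraviroc near 300 nM; one replicate is shown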
eIF4H inh = inhibitors of RNA binding by human eIF4H. inhibition, % at 35 µM. AID 2012. Q15056. eIF4H fluorescence polarization binding assay. 290,000 tested, 0.94% active;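 active = 50% or more with normal probe brightness, or confirmed in later tests; about a fifth of its hits are not listed in these tables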;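 note: calls also rest on retests at 20 µM and on dose response follow-up; 0% = protein and probe with vehicle and 100% = probe without protein; strong numbers were not always called active; many hits fall short of the cut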
Rce1 inh = yeast Ras-converting enzyme inhibition. Q03530. yeast membranes, quenched prenylated peptide cleavage fluorescence. calls only. 290,000 tested, 0.27% active. AID 2563;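 active = fall in fluorescence gain of 50% or more versus controls, with final raw signal at or below 3038400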;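 note: plate controls were neutral control wells for no effect and wells lacking membranes for full effect; tested at 10 µM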
Target sequence (Q03530 whole entry, looked up): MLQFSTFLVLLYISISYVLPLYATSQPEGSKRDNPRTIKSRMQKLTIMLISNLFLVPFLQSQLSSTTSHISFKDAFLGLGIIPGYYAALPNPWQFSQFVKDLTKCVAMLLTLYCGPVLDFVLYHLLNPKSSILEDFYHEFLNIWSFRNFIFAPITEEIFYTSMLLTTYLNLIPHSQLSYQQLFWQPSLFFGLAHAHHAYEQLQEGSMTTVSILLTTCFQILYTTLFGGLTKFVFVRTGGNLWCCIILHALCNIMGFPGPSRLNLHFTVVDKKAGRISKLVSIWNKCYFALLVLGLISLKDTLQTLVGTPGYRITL
eIF4H inh retest = second read-out of eIF4H inh, no call of its own (marks repeat the call); inhibition, %; compound at 20 µM; confirmation average;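 mean of two retest wells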
PABP FP inh retest = recorded beside PABP FP inh, whose call it bears; inhibition, %; compound at 20 µM; confirmation repeats;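 mean of two retest wells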
MT1-MMP act inh RFP = recorded beside MT1-MMP act inh, whose call it bears; RFP signal change, %; measured here: RFP expression control read;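 0 = vehicle wells; hits needed this value within 50% of zero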
* marks the source's active call; other numbers are inactive results; i = inactive; . = no result given; & = joins results of further samples. A portion of the library; count on the stated rates, not on these rows.

SMILES	MT1-MMP act inh	MT1-MMP act inh RFP	Yeast UUG start	CSC inhib	PABP FP inh	HIV Env fusion	eIF4H inh	Rce1 inh	others
Cc1c(C(=O)NCCCN2CCOCC2)oc2c1C1(CCC2)SCCS1	7	9	.	24	-3	-3	-1	i
CCOC(=O)N1CCN(C(=O)C(=O)NN)CC1	-4	3	.	-7	2	1	-1	i
CCN1CCN(c2ccc(S(=O)(=O)N3CCCCC3)cc2NC(=O)c2cccc(C)c2)CC1	3	0	.	0	.	-10	.	i
O=C(Cc1ccccc1F)NC1CCCN(Cc2ccc(Cl)cc2)C1 (stereo not drawn)	-3	0	2	-10	-6	-64	0	i
COc1ccc(-c2nc(CS(=O)CC(=O)NCCCN3CCCC(C)C3)c(C)o2)cc1OC (stereo not drawn)	3	6	6	-5	-3	-3	-5	i
COc1cc2nc(SCC(=O)NCCc3ccccc3)n(Cc3ccco3)c(=O)c2cc1OC	8	4	-2	-2	12	-34	-4	i
N/C(=N\c1nc(C(F)(F)F)cc(=O)[nH]1)Nc1ccc(Cl)cc1	.	.	.	10	44	.	-6	i
CN(c1ccc(C(=O)N2CCN(c3ccccc3F)CC2)cc1)S(=O)(=O)c1ccccc1	1	1	13	.	-2	8	-6	i
CN1C(=O)c2ccc(C(=O)NCc3ccc4c(c3)OCO4)cc2C1=O	-3	-5	.	-19	11	17	11	i
Cc1ccccc1N(CC(=O)NC1CCCCC1)C(=O)c1csnn1	-1	0	-12	.	-2	-2	-4	i
CCn1nc(C(=O)N2CCc3ccccc3C2)c2ccccc2c1=O	-6	-5	-10	13	8	9	-3	i
COc1cc(OC)c(C2Oc3nc(SC)nnc3-c3ccccc3N2C(C)=O)cc1OC (stereo not drawn)	3	1	-13	-3	-4	4	26	i
O=C1NC(C(=O)O)=CC(c2ccc([N+](=O)[O-])cc2)N1 (stereo not drawn)	3	1	.	-13	-4	-25	-3	i
Cc1cc(Cl)ccc1OCC(=O)NNC(=O)c1cccnc1	0	1	-23	-7	-12	-6	-15	.
O=C(Nc1ccc(Cl)cc1)NC1CCCCC1Cc1ccco1 (stereo not drawn)	-9	-11	-16	54	3	.	4	i
COc1ccccc1CCN1C(=S)NC(C)(C)CC1(C)O (stereo not drawn)	-3	-4	-32	-1	8	.	3	i
CC1(C)CC(=O)C2=C(C1)NC1=C(C(=O)c3ccccc31)C2c1ccc(O)cc1 (stereo not drawn)	10	-5	.	-1	53	39	-4	i	eIF4H inh retest=-4;PABP FP inh retest=0
Cc1cccc(C(=O)NNC(=O)CN2C(=O)c3ccccc3C2=O)c1	3	9	.	-10	9	-16	-9	i
Cn1nc(C(=O)N2CCN(c3ccc(Cl)cc3)CC2)c2c1-c1ccccc1S(=O)(=O)C2	7	-4	-7	-19	.	13	.	i
CCOC(=O)Cc1cc(=O)[nH]c(Nc2nc3ccccc3o2)n1	1	-2	-13	-12	5	.	18	i
CCn1ncc(C2=NOC(C(=O)N3CCC(C(N)=O)CC3)C2)c1C (stereo not drawn)	-1	3	-8	-6	-3	-8	-10	i
CCOC(=O)c1c(C)n(CC(O)c2ccccc2)c2ccc(O)cc12 (stereo not drawn)	12	0	.	-6	4	.	8	i
CCC(C)(C)n1nnnc1CN1CCC(c2nc3ccc(C)cc3[nH]2)CC1	5	-3	-21	5	-2	25	6	i
COc1ccc(CN(C)C[C@H]2Oc3c(NC(=O)Nc4ccccc4)cccc3C(=O)N([C@H](C)CO)C[C@@H]2C)cc1	6	-1	-16&-4	-2	.	-10	.	.
Cc1ccsc1C1CC(=O)Nc2ccccc2S1 (stereo not drawn)	-1	0	1	-1	2	-15	-6	i

5 structures already listed, sorted by length of the SMILES, lowest first:
SMILES	MT1-MMP act inh	MT1-MMP act inh RFP	Yeast UUG start	CSC inhib	PABP FP inh	HIV Env fusion	eIF4H inh	Rce1 inh	others
Cc1ccsc1C1CC(=O)Nc2ccccc2S1 (stereo not drawn)	-1	0	1	-1	2	-15	-6	i
CCOC(=O)Cc1cc(=O)[nH]c(Nc2nc3ccccc3o2)n1	1	-2	-13	-12	5	.	18	i
CCn1ncc(C2=NOC(C(=O)N3CCC(C(N)=O)CC3)C2)c1C (stereo not drawn)	-1	3	-8	-6	-3	-8	-10	i
CN(c1ccc(C(=O)N2CCN(c3ccccc3F)CC2)cc1)S(=O)(=O)c1ccccc1	1	1	13	.	-2	8	-6	i
COc1ccc(CN(C)C[C@H]2Oc3c(NC(=O)Nc4ccccc4)cccc3C(=O)N([C@H](C)CO)C[C@@H]2C)cc1	6	-1	-16&-4	-2	.	-10	.	.

The list continues.
SMILES	MT1-MMP act inh	MT1-MMP act inh RFP	Yeast UUG start	CSC inhib	PABP FP inh	HIV Env fusion	eIF4H inh	Rce1 inh	others
OCCCN1c2ccccc2Nc2nnc(-c3ccccc3)cc21	5	3	-27	14	3	.	-1	i
O=C(C1CCC(CNS(=O)(=O)c2cccc3nsnc23)CC1)N1CC=C(c2ccccc2)CC1 (stereo not drawn)	-4	-12	-34	9	0	10	-3	i
COc1ccc(OC)c(/C(C)=N/Nc2ccc(C(=O)O)cc2)c1	-1	2	0	1	6	16	-2	i
O=C(COc1cc(Cl)c(Cl)cc1Cl)Nc1ccncc1	1	-13	-14	18	3	-105	-5	i
Cc1ccc(C(=O)OCC(=O)Nc2ccc3c(c2)OCO3)o1	-1	4	-11	-3	-9	-47	-1	i
O=C(NCCCNC(=O)c1cncc(O)c1)c1cncc(O)c1	3	1	.	-12	-5	0	-12	i
COC(=O)[C@@H](Cc1c[nH]c2ccccc12)NC(=O)CCC(=O)c1ccc(F)cc1	-1	1	-13	-22	-3	-1	2	i
CC(C)c1nc(SCC(=O)Nc2cccc(C(F)(F)F)c2)c2c(=O)n(C)c(=O)n(C)c2n1	-7	-5	-17	5	7	-144	-3	i
C/C(=N\NC(=O)CC#N)c1cc2ccccc2oc1=O	5	0	.	4	-6	-176	-7	i
COc1ccc(NC(=O)CN2CCN(C(=O)c3ccco3)CC2)c(OC)c1	7	10	11	3	-4	-126	-7	i
CCCn1c(/N=C/c2cc(OC)ccc2O)nc2ccccc21	-9	-4	10	-2	10	.	2	i
Cc1cc(C)n(-c2ccc(C(=O)Nc3ccc(C)c(S(=O)(=O)N(C)C)c3)cc2)n1	-1	-27	.	0	24	29	-5	i
CC(C)c1ccccc1NC(=O)c1ccco1	0	2	-32	5	.	.	.	i
CN(C)c1ccc(C(=O)OCC(=O)NCCNC(=O)COC(=O)c2ccc(N(C)C)cc2)cc1	0	1	-16	-6	-21	-298	-10	i
CSc1ncc(Cl)c(C(=O)Nc2ccccc2Cl)n1	-2	1	.	1	-7	.	-1	i
O=C(Nc1ccc(Cl)cc1)Nc1nnc(-c2ccncc2)s1	-9	-31	-13	91*	11	28	12	i
O=C(CSc1ccccn1)N1CCN(S(=O)(=O)c2ccc(Cl)cc2)CC1	-1	-3	.	.	.	-21	.	i
CC1CCCCC1NC(=O)Cc1ccc(S(=O)(=O)N2CCOCC2)s1 (stereo not drawn)	0	1	-2	-4	.	16	.	i
O=C(N/N=C/c1cccnc1)c1ccc(Cn2cc([N+](=O)[O-])cn2)o1	-5	-2	.	.	-17	15	1	i
Cc1cccc(C)c1NC(=S)N/N=C/c1ccccc1C(=O)O	0	-2	-27	13	6	7	1	i
COc1ccc(C(=O)C[n+]2ccc3c(c2)nc(-c2ccccc2)n3C)cc1	-1	-11	.	-6	14	.	-6	i
COc1cccc(N(C(=O)c2cnccn2)C(C(=O)NC2CCCCC2)c2ccc(Cl)cc2)c1 (stereo not drawn)	-6	-2	-15	0	-6	i	-2	i
COc1ccc(S(=O)(=O)Nc2c(C)n(C)n(-c3ccccc3)c2=O)c(Cl)c1Cl	1	3	-10	-21	-6	-75	-1	i
Cc1ccc(Cl)cc1N1CCN(S(=O)(=O)c2ccc3c(c2)CC(=O)N3C)CC1	-5	3	-19	-12	3	8	-5	i
COc1ccc(-c2nc(N)ncc2Oc2ccccc2Br)c(O)c1	-9	-10	-3	-4	9	.	-7	i
More compounds
SMILES	MT1-MMP act inh	MT1-MMP act inh RFP	Yeast UUG start	CSC inhib	PABP FP inh	HIV Env fusion	eIF4H inh	Rce1 inh	others
COc1ccc(-n2cc(-c3ccc(OC(F)F)cc3)[n+]3c2CCCCC3)cc1	-4	-21	.	-9	3	23	1	i
COc1cc(S(=O)(=O)Nc2ccc3c(c2)C(=O)N(C)C3=O)ccc1NC(C)=O	-34	3	-5	-22	.	0	.	.
COc1ccccc1NC(=S)N(CCc1ccc(OC)c(OC)c1)Cc1ccccn1	0	2	-8	-1	6	8	16	i
NC(=O)c1nsc(C(=O)N(c2ccccc2)C(C(=O)NC2CCCC2)c2cccs2)c1N (stereo not drawn)	1	3	-17	19	7	-6	2	i
CC1(C)NC(=O)N(CC(=O)OCC(=O)Nc2cccc(F)c2)C1=O	-4	1	-18	-4	3	-43	-4	i
CCCCCN(C(=O)CCC(=O)OCC(=O)N1C(C)CCCC1C)c1c(N)n(CCCC)c(=O)[nH]c1=O (stereo not drawn)	-5	-1	3	-6	-1	-9	-2	i
C#CCN(C[C@@H]1[C@@H](OC(=O)NCC2CCCCC2)[C@@H](OC(=O)NCC2CCCCC2)Cn2c(=O)n(CCCCCC)c(=O)n21)S(=O)(=O)c1ccc(C)cc1	-7	-6	-11	.	.	22	.	.
O=[N+]([O-])c1cccc(NC(=S)NCCc2ccccc2)c1	2	-14	.	11	14	18	-10	i
O=C1CCC/C=C/C[C@@H](CC(=O)N(CCO)Cc2ccccc2)C(=O)NC[C@H](c2ccccc2)O1	3	1	10	-6	.	-107	.	.
CCCn1c(SCC(=O)Nc2ccc3c(c2)OCCO3)nnc1-c1ccco1	-2	0	-19	10	0	-1	-6	i
O=C1C2Sc3[nH]c(=O)sc3C(c3ccccc3)C2C(=O)N1c1ccc(Cl)cc1 (stereo not drawn)	2	1	-25	.	16	.	0	.
Cc1cccc(-n2c(=O)c3ccccc3n3c(=S)[nH]nc23)c1C	-2	0	-18	-9	13	0	-9	i
O=C(NCC1CCCO1)c1cccc(NC(=O)c2ccc(Br)cc2)c1 (stereo not drawn)	0	-4	5	1	-7	-88	-5	i
COC(=O)CCC(=O)Nc1cccc(C(=O)Nc2cccc(Cl)c2)c1	3	1	-24	.	2	-54	-4	i
COCCNc1nc(-c2ccc(Cl)cc2C)c2sccc2n1	-5	-2	3	.	.	-10	.	.
Cc1c(N)c(C(C)(C)C)cc(C(C)(C)C)c1[N+](=O)[O-]	2	-2	.	74	14	15	12	i
O=C(c1ccc2c(c1)OCO2)N1CCC2(CC1)Oc1ccc(F)cc1C(=O)C21CC(c2cccnc2)=NO1 (stereo not drawn)	-5	0	-11	13	-1	-3	-7	i
COc1ccc(C2(CNC(=O)c3cccs3)CCOCC2)cc1	-6	-3	-20	.	3	-5	9	i
C/[N+]([O-])=C/c1c(OCc2ccccc2)ccc2ccccc12	2	-3	-15	-9	-6	4	-4	i
O=C(CN1CCN(c2ccccn2)CC1)NCc1cccs1	-1	0	-18	5	13	-66	5	i
NC(=O)C1(NC(=O)[C@@H]2CC3(CC(c4cccc(NC(=O)[C@@H]5CCC(=O)N5)c4)=NO3)CN2C(=O)Cc2ccc(Cl)cc2)CC1 (stereo partly drawn)	1	7	4	-11	24	11	24	i
Cc1nn(C)c(Cl)c1NC(=O)OCc1ccc(F)cc1	2	-1	-3	-3	-3	30	-8	i
COc1cc(C(=O)OCC(=O)Nc2c(C)n(C)n(-c3ccccc3)c2=O)c([N+](=O)[O-])cc1OC	4	-3	-15	5	.	.	.	.
C/C(CC(=O)Nc1ccccc1F)=N\NC(=O)Cc1ccc(Cl)cc1	-2	-3	.	.	-1	-8	-4	i
CCOC(=O)[C@@H]1[C@H]2COc3ccc(Br)cc3[C@@H]2N2C(=O)N(c3ccc(C)cc3)C(=O)[C@@]12C	0	-2	-1	-9	.	47	.	.
